ID4 binder: ID4 (human) binding; calls only; small molecule microarray, Flag-ID4 binding, fluorescence F/B; P47928; 31,000 compounds, 1.2% hits;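 active means spot signal over background at p below 0.07 in all four prints; compounds were printed on slides so no solution concentration is given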;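 further: a binder raises fluorescence above local background on the spot; about 2 pmol printed per array spot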
Target sequence (P47928 whole entry, looked up): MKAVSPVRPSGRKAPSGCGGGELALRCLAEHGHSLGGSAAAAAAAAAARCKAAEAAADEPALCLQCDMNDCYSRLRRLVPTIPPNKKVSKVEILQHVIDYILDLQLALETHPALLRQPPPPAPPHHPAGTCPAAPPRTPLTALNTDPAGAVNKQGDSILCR
Calls only; i = inactive; + = active, no number. A portion of the library; count on the stated rates, not on these rows.

#	molecule	ID4 binder
1	O=P(O)(C1Cc2ccccc2C1)C(O)c1ccco1 (centres undefined)	i
2	CC(=O)NC1=NN(C(C)=O)C(/C=C/c2ccccc2)S1 (centres undefined)	i
3	O=C(CCn1cnc2ccccc2c1=O)Nc1cccc(Cl)c1Cl	i
4	O=C1CC(C(=O)Nc2ccc(O)c(C(=O)O)c2)C(c2ccccc2)O1 (centres undefined)	i
5	Cc1ccc2nc(-c3ccc(NC(=O)CSc4ncn[nH]4)cc3)sc2c1	i
6	O=C(CSc1nnc(-c2ccccc2O)n1-c1ccccc1)N1CCc2ccccc21	i
7	COc1ccc(-n2c(SCC(=O)N3CCOCC3)nnc2-c2ccc(Cl)cc2)cc1	i
8	COc1ccccc1-c1cnc2c(c1)C(=O)N([C@H](C)CO)C[C@H](C)[C@@H](CN(C)C)O2	i
9	C[C@@H]1CN([C@H](C)CO)C(=O)c2cc(C#Cc3cccc(F)c3)cnc2O[C@H]1CN(C)C(=O)C1CC1	i
10	CC(C)CC#Cc1cnc2c(c1)C(=O)N([C@@H](C)CO)C[C@@H](C)[C@H](CN(C)Cc1cccc(F)c1)O2	i

Reprinted from the part before: five entries, then new ones.
#	molecule	ID4 binder
6	O=C(CSc1nnc(-c2ccccc2O)n1-c1ccccc1)N1CCc2ccccc21	i
7	COc1ccc(-n2c(SCC(=O)N3CCOCC3)nnc2-c2ccc(Cl)cc2)cc1	i
8	COc1ccccc1-c1cnc2c(c1)C(=O)N([C@H](C)CO)C[C@H](C)[C@@H](CN(C)C)O2	i
9	C[C@@H]1CN([C@H](C)CO)C(=O)c2cc(C#Cc3cccc(F)c3)cnc2O[C@H]1CN(C)C(=O)C1CC1	i
10	CC(C)CC#Cc1cnc2c(c1)C(=O)N([C@@H](C)CO)C[C@@H](C)[C@H](CN(C)Cc1cccc(F)c1)O2	i
11	COc1ccc([N+](=O)[O-])cc1N(CC(=O)Nc1ccccc1Br)S(C)(=O)=O	i
12	Cc1ccc(-c2nnc3c4ccccc4c(C)nn23)cc1S(=O)(=O)NCC1CCCO1 (centres undefined)	i
13	COc1ccc(OC)c(NC(=O)COc2cc(C)cc(C)c2C)c1	i
14	O=C(CSc1nc2ccccc2o1)Nc1ccc(Br)cc1Cl	i
15	COC(=O)C[C@H]1C=C[C@@H](NC(=O)c2ccccc2)[C@@H](CO)O1	i
16	O=C(c1ccccc1)c1cc(Cl)ccc1NS(=O)(=O)c1ccccc1[N+](=O)[O-]	i
17	C[C@@H]1CN([C@@H](C)CO)S(=O)(=O)c2ccc(Br)cc2O[C@@H]1CN(C)Cc1ccccc1	i
18	COc1ccc(-c2cc(C(F)(F)F)nc(SCc3cccc(C(=O)O)c3)n2)cc1	i
19	CCOc1ccccc1CNc1nc2nc(C)c(Cl)c(C)n2n1	i
20	CCCNC(=O)C[C@@H]1C[C@@H]2c3cc(NC(=O)C4CCC4)ccc3O[C@@H]2[C@@H](CO)O1	i
21	CS(=O)(=O)N(CC(=O)Nc1cc(C(F)(F)F)ccc1Cl)c1cccc(F)c1	i
22	C[C@@H]1CN([C@@H](C)CO)S(=O)(=O)c2ccc(-c3ccc(C(=O)N(C)C)cc3)cc2O[C@@H]1CN(C)C(=O)C1CCOCC1	i
23	Cc1ccc(-c2ccc3c(c2)O[C@H](CN(C)C)[C@H](C)CN([C@H](C)CO)S3(=O)=O)cc1	i
24	Cc1cc(C)c(OCC(=O)Nc2ncc(I)cc2C)c(Cl)c1	i
25	O=C(Nc1ccc(F)cc1)N[C@@H]1C=C[C@@H](CC(=O)N2CCCCC2)O[C@H]1CO	i
26	Cc1ccc(C)c(NC(=O)c2ccc(OCC(=O)Nc3cc(C(F)(F)F)ccc3Cl)cc2)c1	i
27	CN(C)C(=O)[C@@]1(Cc2ccccc2N=[N+]=[N-])N=C(c2ccc(OCCCO)cc2)O[C@H]1c1ccccc1N=[N+]=[N-]	i
28	CN(CC(=O)Nc1cccc2ccccc12)S(=O)(=O)c1ccc(F)cc1	i
29	COCCNCCn1cnc2c1c(=O)[nH]c(=O)n2C	i
30	O=C(C[C@H]1C[C@H]2c3cc(NC(=O)C4CCC4)ccc3O[C@H]2[C@@H](CO)O1)NCc1cccc(F)c1	i

Filtered by structure, the compounds so far containing bromine
#	molecule	ID4 binder
11	COc1ccc([N+](=O)[O-])cc1N(CC(=O)Nc1ccccc1Br)S(C)(=O)=O	i
14	O=C(CSc1nc2ccccc2o1)Nc1ccc(Br)cc1Cl	i
17	C[C@@H]1CN([C@@H](C)CO)S(=O)(=O)c2ccc(Br)cc2O[C@@H]1CN(C)Cc1ccccc1	i

New compounds follow
#	molecule	ID4 binder
31	O=C(C[C@H]1C[C@H]2c3cc(NC(=O)C4CCOCC4)ccc3O[C@H]2[C@@H](CO)O1)NCc1cccc(F)c1	i
32	COc1cccc2cc(C(=O)C3C(=O)C(=O)N(CCN4CCOCC4)C3c3cccc(Cl)c3)oc12 (centres undefined)	i
33	CCOC(=O)C1(CCC#N)C(=O)C=C(c2ccc(OC)cc2)CC1c1ccc2ccccc2c1 (centres undefined)	i
34	Cc1cc(C)cc(OCC(=O)Nc2cc(-c3nc4cc(Cl)ccc4o3)ccc2C)c1	i
35	O=C(CN1CCN(S(=O)(=O)c2ccc3ccccc3c2)CC1)Nc1cc(Cl)ccc1Cl	i
36	CCOc1c(S(=O)(=O)NCc2ccccn2)ccc(Cl)c1Cl	i
37	CC1CCc2c(sc3ncnc(SCC(=O)Nc4cccc(Cl)c4Cl)c23)C1 (centres undefined)	i
38	C[C@@H]1CN([C@H](C)CO)S(=O)(=O)c2ccc(-c3ccccc3F)cc2O[C@@H]1CN(C)S(C)(=O)=O	i
39	C[C@@H]1CN([C@@H](C)CO)C(=O)c2cc(C3=CCCCC3)cnc2O[C@H]1CN(C)CC1CCOCC1	i
40	Cc1cc(C(F)F)n2nc(C(=O)Nc3cnn(Cc4ccc(Cl)cc4Cl)c3)nc2n1	i
41	COc1ccc(N(CC(=O)Nc2c(C)cc(C)cc2C)S(C)(=O)=O)cc1Cl	i
42	O=C(C[C@@H]1CC[C@H](NC(=O)c2cccnc2)[C@@H](CO)O1)NCc1ccc(Cl)c(Cl)c1	i
43	CC1(C)Cc2nc3sc4c(SCC(=O)NCc5ccco5)ncnc4c3cc2CO1	i
44	COc1cc2c(cc1OC)CN(C(=O)[C@H]1[C@@H]3C(=O)O[C@@H](c4ccccc4)[C@@H](c4ccccc4)N3[C@@H](c3ccc(O)cc3)[C@]13C(=O)Nc1ccccc13)CC2	i
45	C[C@@H]1CN([C@@H](C)CO)C(=O)c2cc(C3=CCCCC3)cnc2O[C@@H]1CN(C)Cc1ccncc1	i
46	CCC(=O)N(C)C[C@@H]1Oc2ncc(C#CC3(O)CCCC3)cc2C(=O)N([C@H](C)CO)C[C@@H]1C	i
47	Cc1cc(C)c(S(=O)(=O)N(C)CC(=O)Nc2cccc([N+](=O)[O-])c2)c(C)c1	i
48	C[C@@H]1CN([C@H](C)CO)S(=O)(=O)c2ccc(C#Cc3ccc(F)cc3)cc2O[C@H]1CN(C)C(=O)CN(C)C	i
49	COc1ccc(Cl)cc1NC(=O)CN(c1ccc(I)cc1)S(C)(=O)=O	i
50	Cc1cc(C)c(C)c(S(=O)(=O)NCc2cccnc2)c1C	i
51	Cn1c2ccccc2c2nnc(Sc3ccc4nsnc4c3[N+](=O)[O-])nc21	i
52	CC(=O)Nc1ccc(C(=O)Nc2ccccc2N)cc1	i
53	C[C@H](CO)N1C[C@H](C)[C@@H](CN(C)C)Oc2cc(C#CC3CCCCC3)ccc2S1(=O)=O	i
54	CNC[C@@H]1Oc2ncc(-c3ccc(C#N)cc3)cc2C(=O)N([C@H](C)CO)C[C@@H]1C	+
55	C[C@@H]1CN([C@H](C)CO)C(=O)CCCn2nncc2CO[C@H]1CN(C)CC1CC1	i
56	Cc1cc(C)nc(SC(C)C(=O)Nc2cccc(Cl)c2)n1 (centres undefined)	i
57	C[C@H]1CN([C@@H](C)CO)S(=O)(=O)c2ccc(-c3ccncc3)cc2O[C@H]1CN(C)S(=O)(=O)c1ccccc1F	i
58	Cc1cc(-c2ccccc2)nc(SCC(=O)Nc2ccc(OC(F)F)cc2)n1	i
59	Cc1cc(C)c(NC(=O)CN(C)S(=O)(=O)c2ccc(F)cc2)c(C)c1	i
60	O=C(CSc1nnc2c(n1)[nH]c1ccccc12)Nc1cccc(C(F)(F)F)c1	i
61	CS(=O)(=O)Nc1ccc2c(c1)[C@@H]1C[C@H](CC(=O)NCC(F)(F)F)O[C@@H](CO)[C@@H]1O2	i
62	COC(=O)CSc1nc(NC(C)C)nc(N2CCOCC2)n1	i
63	COc1ccc(C)cc1NC(=O)NCCCN1CCN(c2ccccc2C)CC1	i
64	CN(CC(=O)Nc1ccc(C(N)=O)cc1)S(=O)(=O)c1ccc2ccccc2c1	i
65	O=C(COc1ccccc1)NC(=S)Nc1cc(-c2nc3ccccc3o2)ccc1Cl	i
66	COc1cccc(CNC(=O)C[C@H]2CC[C@H](NC(=O)C3CCC3)[C@@H](CO)O2)c1	i
67	O=C(CCCn1cc([N+](=O)[O-])cn1)Nc1cc(F)ccc1F	i
68	N#Cc1ccccc1CSc1nnc(-c2ccc([N+](=O)[O-])cc2)n1-c1ccccc1	i
69	C/C=C/c1ccc2c(c1)O[C@@H](CN(C)CC1CC1)[C@@H](C)CN([C@@H](C)CO)S2(=O)=O	i
70	O=C(C[C@@H]1CC[C@@H](NC(=O)Nc2ccc(C(F)(F)F)cc2)[C@H](CO)O1)NCCN1CCCC1	i
71	CCCN(C)C[C@H]1Oc2cc(-c3cccc(F)c3)ccc2S(=O)(=O)N([C@H](C)CO)C[C@H]1C	i
72	CC(C)CC#Cc1cnc2c(c1)C(=O)N([C@H](C)CO)C[C@@H](C)[C@H](CN(C)Cc1ccccc1F)O2	i
73	Cc1ccc(S(=O)(=O)N(CC(=O)Nc2cccnc2)c2cc(C)cc(C)c2)cc1	i
74	C[C@H]1CN([C@@H](C)CO)S(=O)(=O)c2ccc(-c3cccc(F)c3)cc2O[C@@H]1CN(C)C(=O)Nc1cc(F)ccc1F	i
75	COc1cc(NC(=O)Cn2nc(C(F)(F)F)c(Cl)c2C)cc(OC)c1OC	i
76	Cc1cc(CNC(=S)Nc2ccc(S(N)(=O)=O)cc2)nn1C	i
77	Cc1ccnc(N)c1	i
78	O=C(C[C@H]1C[C@@H]2c3cc(NS(=O)(=O)c4ccc(F)cc4)ccc3O[C@@H]2[C@@H](CO)O1)NCCN1CCCCC1	i
79	CCC(=O)N(C)C[C@@H]1Oc2ncc(C3=CCCC3)cc2C(=O)N([C@@H](C)CO)C[C@@H]1C	i
80	O=C(Nc1ccc2c(c1)[C@@H]1C[C@@H](CC(=O)N3CCc4ccccc4C3)O[C@@H](CO)[C@@H]1O2)C1CCC1	i

Later entries
#	molecule	ID4 binder
81	COc1ccc(N(C(C)C(=O)Nc2ccc(Br)cc2)S(C)(=O)=O)cc1 (centres undefined)	i
82	COc1ccc(Cl)cc1NC(=O)CSc1nnc(-c2ccc(Br)cc2)o1	i
83	Cc1cccc(N2C(=O)CC(SCC(=O)Nc3ccccc3)C2=O)c1 (centres undefined)	i
84	CC(C)NC(=O)N(C)C[C@H]1Oc2ncc(C#CC3CC3)cc2C(=O)N([C@@H](C)CO)C[C@H]1C	i
85	O=C(C[C@@H]1CC[C@H](NC(=O)Nc2cc(F)ccc2F)[C@@H](CO)O1)NCc1ccncn1	i
86	COc1cccc2cc(C(=O)C3C(=O)C(=O)N(c4cc(C)on4)C3c3ccccc3)oc12 (centres undefined)	i
87	COC(=O)C[C@H]1C(C)(C)[C@H](OC(C)=O)[C@]2(O)CC3=C4CC(=O)O[C@@H](c5ccoc5)[C@]4(C)CCC3[C@@]1(C)C2=O (some centres undefined)	i
88	Cn1c(SCc2ccccc2C#N)nnc1-c1ccncc1	i
89	COc1ccc([N+](=O)[O-])cc1N(CC(=O)Nc1cccc(C(F)(F)F)c1)S(C)(=O)=O	i
90	C/C=C/c1cnc2c(c1)C(=O)N([C@H](C)CO)C[C@H](C)[C@@H](CN(C)C(=O)C1CC1)O2	i
91	CC(C)n1cnc2c(NCc3ccccc3)nc(NCCO)nc21	i
92	CC(=O)N(C)C[C@H]1Oc2ncc(-c3ccccc3C)cc2C(=O)N([C@@H](C)CO)C[C@H]1C	i
93	CC(C)C12CC1C(C)(O[C@@H]1O[C@H](CO)[C@@H](O)[C@H](O)[C@H]1O)CC2=O (some centres undefined)	i
94	CN1CCN(C(=O)CN(C)S(=O)(=O)c2ccc3ccccc3c2)CC1	i
95	COc1cccc(NC(=O)N(C)C[C@@H]2Oc3ncc(C#Cc4ccncc4)cc3C(=O)N([C@@H](C)CO)C[C@H]2C)c1	i
96	COC(=O)[C@]1(CCS(=O)(=O)c2ccccc2)N=C(c2ccc(OCCCO)cc2)O[C@@H]1c1ccccc1N=[N+]=[N-]	i
97	CCC(C)(C)C(=O)N1CCC(C(=O)OC)CC1	i
98	O=C(Nc1ccccc1C(=O)O)c1cccc(S(=O)(=O)Nc2ccccc2Cl)c1	i
99	CCCN(C)C[C@H]1Oc2ncc(-c3ccccc3OC)cc2C(=O)N([C@H](C)CO)C[C@H]1C	i
100	Cc1ccc(C(=O)NC(=O)CSc2n[nH]c(N)n2)cc1	i
101	O=C1C[C@@H](c2ccccc2)Oc2cc(O)cc(O)c21	i
102	O=C(CCn1cnc2ccccc2c1=O)Nc1ccc(S(=O)(=O)N2CCOCC2)cc1	i
103	CS(=O)(=O)N(CC(=O)Nc1cccc(Br)c1)c1ccc(F)c(Cl)c1	i
104	Cc1ccc(NC(=O)C(C)N(c2ccccc2)S(C)(=O)=O)cc1C (centres undefined)	i
105	C[C@@H]1CN([C@@H](C)CO)S(=O)(=O)c2ccc(Br)cc2O[C@@H]1CN(C)C	i
106	O=c1ccc(Oc2nc(N3CCCCC3)nc(N3CCOCC3)n2)n[nH]1	i
107	O=C(C[C@@H]1C=C[C@H](NC(=O)c2cccnc2)[C@@H](CO)O1)NCCN1CCCCC1	i
108	Cc1nn(-c2ccccc2)nc1C(=O)N(C)c1nnc(C(F)(F)F)s1	i
109	O=C(CSc1n[nH]c(-c2ccncc2)n1)Nc1ccc(F)cc1	i
110	Cc1ccccc1-c1nc(SCC(=O)Nc2ccc(F)c(Cl)c2)n[nH]1	i

Screening results: PubChem BioAssay, Broad Institute
